HCMV NEC inh: inhibitors of HCMV UL50-UL53 interaction, biochemical, HTRF | hit rate 0.15% among 190,000 | HCMV UL50-UL53 nuclear egress complex (human cytomegalovirus) | normalized percent inhibition | inhibition, % (test concentration not listed);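 active = both replicates at 50% or more, plus weaker picks with an unusually low signal ratio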;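 also: stock transfer was 100 nL into about 20 µL; 0% = negative control wells and 100% = wells with untagged competitor protein; inactives centre near -12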
GIV-Gai inh: inhibitors of GIV peptide binding to Galpha-i3, primary screen, biochemical, fluorescence polarization, FITC-GIV GBA peptide, rat Galphai3; Guanine nucleotide-binding protein G(i) subunit alpha-3 (Rattus norvegicus), P08753; 90 min; hits give low values; scaled: aluminum fluoride 0%, vehicle 100%; percent of control (FP), % (no concentration beside the values); hit rate 0.42% among 210,000; AID 1224905, 2016;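 active = replicate mean at 85% of control or lower, very high polarization wells dropped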;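 also: wells of about 15 µL received 100 nL stock; the first replicate is given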
Target sequence (P08753 whole entry, looked up): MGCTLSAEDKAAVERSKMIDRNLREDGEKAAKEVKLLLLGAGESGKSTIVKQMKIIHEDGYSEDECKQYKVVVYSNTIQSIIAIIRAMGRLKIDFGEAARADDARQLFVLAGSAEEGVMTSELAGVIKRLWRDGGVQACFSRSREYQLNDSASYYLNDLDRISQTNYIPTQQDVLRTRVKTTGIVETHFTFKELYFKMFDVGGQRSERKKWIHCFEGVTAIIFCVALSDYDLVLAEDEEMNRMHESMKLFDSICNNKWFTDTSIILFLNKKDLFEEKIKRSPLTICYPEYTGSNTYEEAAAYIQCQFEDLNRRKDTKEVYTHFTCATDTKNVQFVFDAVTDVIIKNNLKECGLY
Sa growth 42C: S. aureus growth inhibition at 42 and 30 °C, primary screen, LtaS inhibitor project, RN4220, two temperatures; OD600, 20 h, 42 °C; hits give low values; relative growth, % (concentration not given with the values); hit rate 0.53% among 170,000;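 active = growth at 42 °C up to 50% and 20 or more points under that at 30 °C, or under 10% at both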;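 also: 300 nL library stock went into each well; scaled to the means of positive and negative controls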
Sa growth 42C second temp: recorded beside Sa growth 42C, whose call it bears; relative growth, %; measured here: growth at 30 °C;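 optical density after 20 h as mean of two plates; 100% = untreated growth and lower means inhibition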
* hit, by the source's call; nt = not tested or not shown; & = joins results of further samples.

SMILES	HCMV NEC inh	GIV-Gai inh	Sa growth 42C	Sa growth 42C second temp
Cc1cccc(CC(=O)Nc2cccc(-c3nc4cccnc4s3)c2)c1	6	101	100	89
O=C(c1ccccc1Cl)N(Cc1ccco1)c1ccccn1	-14	102	97	88
COC(=O)C1C(=O)C2=C(CC1C)NC(C)=C(C(=O)OC(C)C)C2c1coc2ccccc2c1=O (stereo unspecified)	-8	97	100	75
CCc1cccc(NC(=O)C(CC)Sc2nnc(-c3ccccc3NC(C)=O)c(=O)[nH]2)c1 (stereo unspecified)	-21	98	nt	nt
c1ccc(C(Sc2ncn[nH]2)c2ccccc2)cc1	-7	nt	96	78
O=C(Cn1nc(N2CCN(c3ccccc3)CC2)ccc1=O)Nc1ccc2c(c1)OCO2	-15	111	nt	nt
O=C(Nc1ccc(Br)cc1)c1ccc(F)c(S(=O)(=O)NC2CCCCCC2)c1	nt	102	81	67
CC(=O)Oc1ccccc1C(=O)Oc1cccc(C)c1	-43	101	100	98
COC(=O)c1sc(NC(=O)COC(=O)/C=C/c2ccc(C)o2)c(C(=O)OC)c1C	-6	nt	89	88
Cc1ccc(-c2cnnc(-n3nc(C)c4c3NC(=O)CC4c3cc(C)ccc3C)n2)cc1 (stereo unspecified)	-39	92	nt	nt
C/C(=N\O)c1cc(Cl)cc(Cl)c1O	9	98	67	55
CCOC(=O)C1CCN(C(=O)c2cnn(-c3ccccc3)c2-n2cccc2)CC1	nt	98	101	94
COCCN1CC(O)=C(c2nc(C)c(C)s2)C1=N	-14	103	nt	nt
O=C(NCC1CCCO1)c1cccc(C(=O)NCC2CCCO2)n1 (stereo unspecified)	-11	98	nt	nt
Cc1n[nH]c(=O)c2c(NC(=O)COC(=O)CC3(Cc4nc5ccccc5s4)CCCC3)oc(C)c12	-25	nt	136	99
CC1CCN(CC2CCN(C(=O)Nc3ccc(C(=O)NCc4ccc(Cl)cc4)cc3)CC2)CC1	-1	98	nt	nt
O=C(O)c1ccc(-n2nnnc2SCC(=O)N2CCOCC2)cc1	nt	100	121	88
CCC(NC(=O)Nc1cc(OC)ccc1OC)c1c(-n2cccc2)sc2c1CCN(CC)C2 (stereo unspecified)	nt	115	115	87
NC(=O)C1CCN(C(=O)Nc2cccc(Cl)c2)CC1	7	102	107	102
Oc1ccc(Nc2nc3nonc3nc2Nc2cccc(Br)c2)cc1	-34	102	nt	nt
CCCn1c(C)cc(C(=O)CSc2nnc(-c3cc(OC)c(OC)c(OC)c3)o2)c1C	-5	nt	108	92
Cn1ncc2c(N3CCOCC3)ncnc21	3	104	107	92
CC1CCCCN1C(=S)NC(=O)c1ccccc1Cl (stereo unspecified)	8	nt	110	96
CCOc1ccccc1NC(=O)COC(=O)c1cn(CC)c2nc(C)ccc2c1=O	-8	103	103	90
O=C(CN1CCN(S(=O)(=O)c2ccc(Br)cc2)CC1)c1ccc2c(c1)OCO2	-38	102	99	90
COc1cc(-c2ccc(/C=C3\SC(=N)N(c4nccs4)C3=O)o2)c(OC)cc1Cl	1	253	123	85
CC(C)(C)c1ccc(OCCn2ccccc2=O)cc1	-12	104	116	96
CC(NC(=S)Nc1ccc(S(N)(=O)=O)cc1)c1ccncc1 (stereo unspecified)	-7	110	105	97
COCCN1CCN(C2CCN(C(=O)NC3CCCCC3)CC2)C(=O)C1=O	-13	107	nt	nt
CN(CC(=O)Nc1ccc(F)cc1F)S(=O)(=O)c1ccc2c(c1)c(=O)n(C)c(=O)n2C	nt	100	91	94
O=C(NC1CCN(C(=O)Nc2cccc(Cl)c2)CC1)C1CCCCC1	9	105	94	99
COc1ccc(Cn2c3ccccc3c3nc4ccccc4nc32)cc1	nt	105	91	98
Cc1ccc2cc(CN(Cc3ccccc3)C(=O)C3CC3)c3nnnn3c2c1	-6	107	113	89
CCc1ccc(C(=O)Cc2cc3cccc(OC)c3oc2=O)cc1	nt	97	109	95
CCOC(=O)c1cc(C)n(CCCN2CCOCC2)c1C	-8	99	105	90
O=C(Oc1ccccc1N1CCCCC1)c1sccc1Cl	-1	107	120	91
Cc1cc(=S)nc(C(C)C)[nH]1	-1	nt	28*	74*
Cc1ccc(OCC(=O)N2CCCCC2)cc1	-24	99	87	85
COc1cccc(Cn2c(SCC(=O)N(C)c3ccccc3)nc3ccccc32)c1	nt	106	98	89
Cc1ccc(C(=O)Nc2ccccc2)cc1S(=O)(=O)Nc1ccccc1	-30	106	100	76
O=C(Cn1cc(/C=C2\NC(=S)N(c3ccccc3)C2=O)c2ccccc21)NCc1ccco1	-10	100	94	72
Cc1ccc2ncc(C(=O)c3ccccc3)c(N3CCOCC3)c2c1	-16	93	nt	nt
CCOC(=O)c1c(NC(=O)CSc2nnc3c4ccccc4n(CC)c3n2)sc2c1CCN(C)C2	-31	107	95	81
COc1ccc(-c2nc3ccccc3o2)cc1NC(=O)C(C)(C)Oc1ccc(Br)cc1	-4	99	97	93
COc1ccc(NS(=O)(=O)c2ccc3oc(SCC(=O)Nc4ccc5c(c4)OCO5)nc3c2)cc1	-10	nt	106	90

Single values from the list.
Result of CCc1ccc(C(=O)Cc2cc3cccc(OC)c3oc2=O)cc1 under GIV-Gai inh: 97
Result of O=C(NC1CCN(C(=O)Nc2cccc(Cl)c2)CC1)C1CCCCC1 under Sa growth 42C second temp: 99
Result of COc1ccc(-c2nc3ccccc3o2)cc1NC(=O)C(C)(C)Oc1ccc(Br)cc1 under HCMV NEC inh: -4

Later entries.
SMILES	HCMV NEC inh	GIV-Gai inh	Sa growth 42C	Sa growth 42C second temp
O=C(Nc1cccc(Cl)c1)c1nnc(COCC(=O)N2CCN(c3ccccn3)CC2)s1	-31	99	nt	nt
Cc1ccc(NC(=O)CSc2nc3ccccc3c3nc(CCc4c(C)n[nH]c4C)nn23)c(C)c1	nt	105	95	91
Cc1ccc(NC(=O)c2sc(-n3nc(C)c(Cc4ccc5c(c4)OCO5)c3C)nc2C)cc1C	13	97	93	94
O=C(COc1ccc(Cl)cc1)N(Cc1ccco1)c1ccccn1	-28	102	109	86
CCOC(=O)C(C)N1c2cccc3cccc(c23)S1(=O)=O (stereo unspecified)	nt	104	122	90
CCOC(=O)C1=C(CSc2nc(CC)c(C)cc2C#N)OC(N)=C(C#N)C1c1ccc(F)cc1 (stereo unspecified)	2	nt	68	94
On1nnc2cc(C(F)(F)F)ccc21	-35	nt	114	80
N#Cc1nc(-c2ccc(COc3ccccc3)o2)oc1NCc1ccccc1	-34	100	95	81
Cc1nn(C2CCS(=O)(=O)C2)c2nc(C3CC3)cc(C(=O)O)c12 (stereo unspecified)	-39	nt	117	101
COCCn1cnnc1SCC(=O)c1ccc(S(=O)(=O)N2CCCC2)cc1	-41	nt	98	94
O=C(CN1C(=O)c2ccccc2S1(=O)=O)N1N=C(c2ccc(Cl)cc2)CC1c1ccco1 (stereo unspecified)	-10	nt	109	92
CCN(CC)C(=O)Cn1cc(C(=O)c2ccco2)c2ccccc21	-4	105	102	84
O=C(Oc1cc(OC(=O)c2ccco2)cc(OC(=O)c2ccco2)c1)c1ccco1	13	nt	81	90
Cc1cc(C)n2nc(CNC(=O)c3c(F)cccc3F)nc2n1	9	106	106	94
Cc1c(-c2ccnc(-c3ccccc3)n2)sc2nc(C(F)(F)F)nn12	1	102	114	95
O=C(NCC(c1cccnc1)N1CCc2ccccc21)c1ccccc1Br (stereo unspecified)	-11	101	123	87
COc1ccc(N2CCN(C(=O)COC(=O)Cn3c(C)csc3=O)CC2)cc1	-7	nt	142	101
CCOC(=O)c1cc2c(C)n(CC)c(C)c2ccc1=O	-91	106	nt	nt
CC(=O)N1CCc2cc(S(=O)(=O)N3CCCCC3C)ccc21 (stereo unspecified)	nt	99	83	83
N#Cc1c(Cl)nsc1-c1ccccc1	-16	101	92	72
O=C(c1ccccc1)c1c[nH]c(C(=O)NCCCn2ccnc2)c1	-6	99	nt	nt
CC1(C)CC(=O)C2=C(C1)OC1=C(C(=O)CC(C)(C)C1)C2c1ccc(-c2ccccc2[N+](=O)[O-])o1	-22	102	nt	nt
O=C(Nc1ccc2oc(-c3cccc(Br)c3)nc2c1)c1ccc([N+](=O)[O-])cc1	-2	100	nt	nt
O=C(Nc1ccccc1C(=O)NC1CCCCC1)c1ccco1	nt	102	88	88
O=C1c2ccccc2-c2nn(C(=O)c3cc4c(s3)CCC4)c3cccc1c23	-31	nt	87	92
CCCCc1ncc(/C=C(\Cc2cccs2)C(=O)O)n1Cc1ccc(C(=O)O)cc1	-11&9	112&98	98	96
N#Cc1c(-c2ccco2)c2c([nH]c1=S)CCC2	-84	nt	52	32
CCOc1ccc(CN2CCN(C(=O)c3ccco3)CC2)cc1	-33	106	125	82
Cc1ccc(CN2C(=O)CSc3ccc(NC(=O)Nc4cccc5ccccc45)cc32)cc1	nt	107	88	85
CCO/C(C)=N\Oc1cc(=O)oc2ccccc12	-29	102	111	94
O=C(O)CSCC(=O)Nc1ccc(Oc2cccc(C(F)(F)F)c2)nc1	15	107	124	99
Cc1ccc2c(CN(C)Cc3ccccc3)cc(=O)oc2c1	-7	105	81	67
Nc1c(-c2nc(-c3ccc(Cl)cc3)cs2)c2ccccn2c1C(=O)c1ccc2c(c1)OCO2	-17	144	104	86
O=C(NCCc1cnc[nH]1)c1ccc(Cn2c(SCc3ccc(F)cc3)nc3cccnc32)cc1	-12	104	nt	nt
CCOc1ccc(CC(=O)NN2CCOCC2)cc1OCC	-1	111	110	105
N#CC(Sc1ccccc1)c1ccccc1 (stereo unspecified)	-14	99	101	65
COc1cccc(/C=C/c2onc(C)c2S(=O)(=O)N2CCC(C(=O)N3CCC(C)CC3)CC2)c1	nt	109	106	87
S=c1sc2ccccc2n1CN1CCCCC1	-38	97	49	31
Cn1c2ccc(Br)cc2c2nnc(SCC(=O)N=C3NC(=O)CS3)nc21	nt	116	91	80
Cc1ccc(C(c2c(O)ccc3ccccc23)N2CCOCC2)o1 (stereo unspecified)	-19	nt	-0.6*	-0.4*
CN(c1ccccc1)S(=O)(=O)c1ccc(N2C(=O)CCS2(=O)=O)cc1	-13	110	nt	nt
COc1cccc(CNC(=O)CN2C(=O)CCCc3ccccc32)c1OC	nt	105	83	84
CC(=O)Nc1ccc(N2C(=O)c3cc(C)nn3CC2(C)C(=O)NCc2ccc(F)cc2)cc1 (stereo unspecified)	0	95	nt	nt
O=C(O)C1CC(=O)N(c2ccc(-c3csnn3)cc2)C1 (stereo unspecified)	-5	102	104	77
N#C/C(=C\c1ccc(-c2cc(C(F)(F)F)ccc2Cl)o1)C(=O)O	-62	nt	96	97

An excerpt from above in order of heavy-atom count, lowest first:
SMILES	HCMV NEC inh	GIV-Gai inh	Sa growth 42C	Sa growth 42C second temp
O=C(O)C1CC(=O)N(c2ccc(-c3csnn3)cc2)C1 (stereo unspecified)	-5	102	104	77
CCN(CC)C(=O)Cn1cc(C(=O)c2ccco2)c2ccccc21	-4	105	102	84
Oc1ccc(Nc2nc3nonc3nc2Nc2cccc(Br)c2)cc1	-34	102	nt	nt
COc1ccc(Cn2c3ccccc3c3nc4ccccc4nc32)cc1	nt	105	91	98
Cc1ccc2cc(CN(Cc3ccccc3)C(=O)C3CC3)c3nnnn3c2c1	-6	107	113	89
CC(=O)Nc1ccc(N2C(=O)c3cc(C)nn3CC2(C)C(=O)NCc2ccc(F)cc2)cc1 (stereo unspecified)	0	95	nt	nt
CC1(C)CC(=O)C2=C(C1)OC1=C(C(=O)CC(C)(C)C1)C2c1ccc(-c2ccccc2[N+](=O)[O-])o1	-22	102	nt	nt

(list continues)
SMILES	HCMV NEC inh	GIV-Gai inh	Sa growth 42C	Sa growth 42C second temp
Cc1cccc(NC(=O)N2CCC(CN3CCOCC3)CC2)c1C	nt	105	117	104
CC(O)c1nc2ccc(Oc3ccc4nc(C(C)O)[nH]c4c3)cc2[nH]1 (stereo unspecified)	0	140	90	96
COc1ccc(-c2nc3cccc(C)n3c2NC(C)(C)C)cc1O	24	170	79	77
Cn1ccnc1C(=O)c1cc(=O)c2ccccc2o1	-146	nt	84	90
O=c1c2ccccc2n2c(SCc3ccccc3)nnc2n1CCc1ccccc1	-20	99	nt	nt
COc1ccc(-c2c(C#N)nnn2-c2cc(C(F)(F)F)cc(C(F)(F)F)c2)cc1	-30	101	79	90
CCn1c(=O)cc(OCC(=O)N2CCN(c3ccccc3)CC2)c2ccccc21	-5	100	95	90
Cc1csc(=O)n1CC(=O)O	-34	nt	95	96
CN1[C@@H](CC(=O)c2ccccc2)CCC[C@H]1C[C@H](O)c1ccccc1	1&-21&-19	98	94	88
Oc1cccc(C=NCc2ccccc2)c1	-3	98	83	82
O=C(c1ccccc1)c1sc(Nc2ccc3c(c2)OCCO3)nc1-c1ccccc1	13	102	86	93
CCCN(CCC)S(=O)(=O)c1ccc(C(=O)OCCN2C(=O)c3cccc4c(N5CCOCC5)ccc(c34)C2=O)cc1	-10	109	nt	nt
CCOc1ccc(-c2cc(C(=O)NCCCOC)c3c(-c4ccc(CC)cc4)[nH]nc3n2)cc1	nt	99	92	89
O=S(=O)(Nc1nc2n(n1)C(c1ccc(F)cc1)C=C(c1ccc(Cl)cc1)N2)c1ccc(Cl)cc1 (stereo unspecified)	-28	107	nt	nt
COc1ccc(-n2nc3ccc(NC(=O)c4cccc(OCCC(C)C)c4)cc3n2)cc1	16	101	102	103
C1=C(CCNc2nn3nnnc3c3ccccc23)CCCC1	-18	106	115	95

Assay outcomes deposited in PubChem BioAssay by ICCB-Longwood Screening Facility, Harvard Medical School.
